# GIRK2 act: activators of human GIRK2 potassium channels; P48051; HEK293-GIRK2 thallium flux, Thallos fluorescence; calls only for hits at 25 µM; 63,000 compounds, 0.05% hits; AID 1259325;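 active = among the strongest 0.2% of first-round signals and kept after retests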;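 also: first round at about 10 µM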
# Target sequence (P48051 whole entry, looked up): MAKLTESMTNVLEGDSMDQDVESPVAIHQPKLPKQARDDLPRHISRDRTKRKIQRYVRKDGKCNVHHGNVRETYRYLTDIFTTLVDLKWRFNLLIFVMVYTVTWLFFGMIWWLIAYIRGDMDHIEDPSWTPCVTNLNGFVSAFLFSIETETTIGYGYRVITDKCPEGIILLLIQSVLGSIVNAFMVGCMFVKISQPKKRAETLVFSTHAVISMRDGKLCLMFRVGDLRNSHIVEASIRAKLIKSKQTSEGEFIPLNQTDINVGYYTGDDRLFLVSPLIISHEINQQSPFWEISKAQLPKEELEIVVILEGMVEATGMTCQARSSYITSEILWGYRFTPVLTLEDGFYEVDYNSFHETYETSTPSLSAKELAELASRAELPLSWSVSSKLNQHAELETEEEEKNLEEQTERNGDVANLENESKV
# Calls only; i = inactive. An excerpt; the hit share may differ from the screen's.
SMILES,GIRK2 act
CCCCC(C)(C)C(O)/C=C/[C@H]1CCC(=O)C1C/C=C\CCCC(=O)O (some centres undefined),i
Cc1cc(=O)[nH]c(-n2nc(-c3cccs3)cc2NC(=O)C(=O)c2c[nH]c3ccccc23)n1,i
O=C(NCCCn1cccc1)C1c2ccccc2Oc2ccccc21,i
O=C(CCCc1ccccc1)NCC1(CO)CC1,i
O=C(COc1cccc(Cl)c1)NCc1ccccc1,i
C=C[C@H]1[C@H](O[C@@H]2O[C@H](CO)[C@@H](O)[C@H](O)[C@H]2O)OC=C(C(=O)OC)[C@H]1C/C=C(\C=O)[C@@H]1C(C(=O)OC)=CO[C@@H](O[C@@H]2O[C@H](CO)[C@@H](O)[C@H](O)[C@H]2O)[C@@H]1C=C,i
CCOc1ccccc1-n1c(-c2ccccc2)cn2c3c(=O)n(C)c(=O)n(C)c3nc12,i
O=C(CN1CCN(c2cccc(Cl)c2)C1=O)N1CCN(Cc2ccccn2)CC1,i
O=C(CSCc1ccccc1)NCCOc1ccc(-c2ccc(F)cc2)nn1,i
CC1CCC(NC(=O)C2CCN(c3cc(Oc4ccccc4)ncn3)CC2)CC1 (centres undefined),i
O=C(Nc1cccc2cnccc12)c1cccc(S(=O)(=O)N2CCCCCC2)c1,i
O=C(/C=C\c1ccccc1)N1CCN(Cc2nc3ccccc3[nH]2)CC1,i
COCCOc1ccc(N2CCn3c2nc2c3c(=O)n(C)c(=O)n2C)cc1,i
CC1CCC2(C)C(CC(O)C(O)C23CO3)C1(C)CCC1=CC(=O)OC1O (centres undefined),i
Cn1cnnc1SCc1cc(=O)c(OCc2cccc([N+](=O)[O-])c2)co1,i
O=C(CCS(=O)(=O)c1ccccc1)NC1CC(O)C(CO)C1 (centres undefined),i
CC(C)(Oc1ccc(Cl)cc1)C(=O)NCC(O)c1ccc2c(c1)CCO2 (centres undefined),i
COc1ccc(NC(=O)CN2N=NC3C(=O)N(c4ccc(C(C)C)cc4)C(=O)C32)cc1Cl (centres undefined),i
COc1ccccc1OCC(=O)NCc1nc(C)no1,i
CCNc1cc(C)nc(NCCNC(=O)COc2cc(-n3cccn3)nc(C)n2)n1,i
CN1CCc2c(sc(NC(=O)c3ccc([N+](=O)[O-])cc3)c2-c2nc3ccccc3s2)C1,i
COc1ccc(Cc2nnc(C3CCN(CC(=O)Nc4nc(C)cs4)CC3)s2)cc1,i
COc1cccc(CNC(=O)CSc2nc3c(-c4ccccc4)csc3c(=O)n2C)c1,i
COc1cc(C)c(Cl)cc1S(=O)(=O)NCCCN1CCOCC1,i
Cc1c(C(=O)Nc2nc3ccccc3s2)nnn1-c1nc2c(s1)CCCC2,i
O=C(Nc1ccccc1C(F)(F)F)N(CCc1cccs1)Cc1cccnc1,i
CCn1c(SCC(=O)Nc2ccc(C)c(C)c2)nc2c(-c3ccccc3)c[nH]c2c1=O,i
COc1ccc2cc(C(=O)NCCc3csc(-n4nc(C)cc4C)n3)[nH]c2c1,i
Cc1nnc2c(SCC(=O)Nc3cccc(Br)c3)nc3ccccc3n12,i
COc1cccc2cc(C(=O)N3CCN(Cc4ccc5c(c4)OCO5)CC3)oc12,i

# Shown with bars between the fields: part of the list above
Compound | GIRK2 act
O=C(CSCc1ccccc1)NCCOc1ccc(-c2ccc(F)cc2)nn1 | i
CC1CCC(NC(=O)C2CCN(c3cc(Oc4ccccc4)ncn3)CC2)CC1 (centres undefined) | i
O=C(Nc1cccc2cnccc12)c1cccc(S(=O)(=O)N2CCCCCC2)c1 | i
O=C(/C=C\c1ccccc1)N1CCN(Cc2nc3ccccc3[nH]2)CC1 | i
COCCOc1ccc(N2CCn3c2nc2c3c(=O)n(C)c(=O)n2C)cc1 | i
CC1CCC2(C)C(CC(O)C(O)C23CO3)C1(C)CCC1=CC(=O)OC1O (centres undefined) | i
Cn1cnnc1SCc1cc(=O)c(OCc2cccc([N+](=O)[O-])c2)co1 | i
O=C(CCS(=O)(=O)c1ccccc1)NC1CC(O)C(CO)C1 (centres undefined) | i
CC(C)(Oc1ccc(Cl)cc1)C(=O)NCC(O)c1ccc2c(c1)CCO2 (centres undefined) | i
COc1ccc(NC(=O)CN2N=NC3C(=O)N(c4ccc(C(C)C)cc4)C(=O)C32)cc1Cl (centres undefined) | i
COc1ccccc1OCC(=O)NCc1nc(C)no1 | i
CCNc1cc(C)nc(NCCNC(=O)COc2cc(-n3cccn3)nc(C)n2)n1 | i
CN1CCc2c(sc(NC(=O)c3ccc([N+](=O)[O-])cc3)c2-c2nc3ccccc3s2)C1 | i
COc1ccc(Cc2nnc(C3CCN(CC(=O)Nc4nc(C)cs4)CC3)s2)cc1 | i
COc1cccc(CNC(=O)CSc2nc3c(-c4ccccc4)csc3c(=O)n2C)c1 | i
COc1cc(C)c(Cl)cc1S(=O)(=O)NCCCN1CCOCC1 | i
Cc1c(C(=O)Nc2nc3ccccc3s2)nnn1-c1nc2c(s1)CCCC2 | i
O=C(Nc1ccccc1C(F)(F)F)N(CCc1cccs1)Cc1cccnc1 | i
CCn1c(SCC(=O)Nc2ccc(C)c(C)c2)nc2c(-c3ccccc3)c[nH]c2c1=O | i

# Additional records
SMILES,GIRK2 act
O=C(CCSc1ccccc1)Nc1ccc2c(c1)C(=O)Nc1ccccc1O2,i
COc1cc(-c2noc(-c3nnn(-c4cc(F)ccc4F)c3C)n2)cc(OC)c1OC,i
O=C(Nc1ccc2c(c1)OCO2)Nc1ccc2c(c1)N(S(=O)(=O)c1cccs1)CCC2,i
O=C(Nc1ccc2c(=O)c3cccc(F)c3oc2c1)c1cccc(Cl)c1,i
COc1cccc(CNS(=O)(=O)c2cc3c4c(c2)CCN4C(=O)CC3)c1,i
O=C(Cn1c(-c2cccnc2)nc2ccccc21)NCc1ccccc1Cl,i
O=C(c1cc(-c2ccco2)on1)N1CCN(C(=O)C2CC2c2ccccc2)CC1 (centres undefined),i
CC(CCc1ccccc1)NC(=O)CCc1csc(NC(=O)Nc2ccccc2)n1 (centres undefined),i
COc1ccc(Br)cc1-c1nc(Cn2nnc(C(=O)Nc3ccc(C)cc3)c2N)c(C)o1,i
N#Cc1ccc(C(=O)NCC2(c3ccc(F)cc3)CCOCC2)cc1,i
CCC(O)c1nc2ccccc2n1Cc1ccc(Cl)cc1Cl (centres undefined),i
COc1ccc(OC)c(NC(=O)CSc2nnc(C)c3cnn(-c4ccc(C)c(C)c4)c23)c1,i
O=C(NCCn1ncc2c(NCc3ccco3)ncnc21)c1c[nH]c2ccccc12,i
COc1cccc2cc(C(=O)Nc3cc(C)nn3-c3nc4ccccc4s3)oc12,i
CC(Cc1ccco1)NC(=O)C1CC(=O)N(c2ccc(F)cc2)C1 (centres undefined),i
Cc1cc(CCNS(=O)(=O)c2cccnc2)on1,i
COCCn1c(=O)c2c(nc3n(Cc4ccccc4)c(C)c(C)n23)n(C)c1=O,i
O=C(CSc1nccn1-c1cccc(C(=O)NCc2ccco2)c1)Nc1cccc(Cl)c1,i
CC(=O)c1cccc(NC(=O)c2csc(Nc3ccc(OC(F)F)cc3)n2)c1,i
Cc1cccc(NC(=O)CCc2csc(NC(=O)NC3CCCCC3)n2)c1C,i
CCOc1ccc(CNC(=O)C2CCN(c3ncnc4c3oc3ccccc34)CC2)cc1,i
COC(=O)c1cccc(Nc2nn3c(=O)c4ccc(F)cc4nc3s2)c1,i
CCOC(=O)NCC1CCN(C(=O)Oc2ccccc2)CC1,i
CC(C)c1c(C(=O)Nc2cccc(Cl)c2)nnn1-c1ccc(Cl)cc1,i
Cc1ccc(-n2cc(C(=O)N3CCC(NC(=O)c4ccc(C#N)cc4)CC3)nn2)cc1,i
O=c1c2nnn(Cc3ccc(F)cc3)c2ncn1Cc1nc(-c2cccc(Br)c2)no1,i
CCOCCn1c(=O)c2c(nc3n2CCN3c2ccc(C)cc2C)n(C)c1=O,i
CC(C)Sc1ccc(CC(=O)Nc2ccc(-n3nnc(C(N)=O)n3)cc2)cc1,i
COc1ccc(NC(=O)Cn2c(C)nc3c(sc4cccc(F)c43)c2=O)cc1,i
CCC(=O)OCCN1C(=O)c2cccc3c(N4CCCCC4)ccc(c23)C1=O,i
CCOc1cn(C)c(C(=O)Nc2cccc(C(C)=O)c2)cc1=O,i
COCCCn1c(C(=O)N2CCOCC2)cc2c(=O)n3ccccc3nc21,i
COCCNC(=O)Nc1nc(-c2cc(Cl)sc2Cl)cs1,i
CCCc1cnc2c(c1SCc1ccccc1C)c(=O)n(C)c(=O)n2C,i
O=C(CN1CCN(Cc2nc3ccccc3[nH]2)CC1)N1CCCc2ccccc21,i
CN1CCc2c(sc(NC(=O)c3c(F)cccc3F)c2-c2nc3ccccc3s2)C1,i
Cc1ccc(NC(=O)N2CC(c3nc(Cc4ccccc4)no3)C2)cc1,i
O=C(NCC1CCN(C(=O)c2ccncc2)CC1)c1cc(Br)ccc1Cl,i
O=C(Cc1noc2ccccc12)NCC#CCOc1ccc2c(c1)OCO2,i
CCn1c(C)c(C(C)=O)c2cc(OCC(O)Cn3nc(C)cc3C)ccc21 (centres undefined),i
COc1cccc(N2CC(C(=O)NCC(C)(O)c3ccco3)CC2=O)c1 (centres undefined),i
COc1ccc(-n2c(-c3ccccc3)cn3c4c(=O)n(CC(N)=O)c(=O)n(C)c4nc23)c(OC)c1,i
Cc1ccc2c(Nc3ccc4c(c3)OCCO4)c(C(=O)N3CCCCCC3)cnc2n1,i
COc1ccc(NC(=O)CSc2nccc(N3CCCCCC3)n2)cc1OC,i
COc1ccc2c(c1)c(CC(=O)NCc1ccc(C(=O)c3ccccc3)cc1)c(C)n2C(=O)c1ccc(Cl)cc1,i
O=C(/C=C/c1ccsc1)N1CCC2(CC1)OCCCO2,i
Cc1cc(C)c(-c2csc(NC(=O)C3CCN(S(=O)(=O)c4ccc(F)cc4)CC3)n2)c(C)c1,i
O=C(NCC1CCCO1)c1ccc(S(=O)(=O)NCc2ccc3c(c2)OCO3)o1 (centres undefined),i
Oc1ccc(C2COc3cc(O)ccc3C2)cc1 (centres undefined),i
CSc1ccccc1C(=O)NCCc1nc(C)cc(C(F)(F)F)n1,i

# More results follow.
SMILES,GIRK2 act
COC(=O)Cn1c(=O)c2c(nc(-n3nc(C)cc3C)n2C)n(C)c1=O,i
Cc1c(Cl)cccc1N1CC(c2nc3ccccc3n2Cc2ccccc2)CC1=O (centres undefined),i
CC(C)CCn1c(N2CCN(CC(=O)OCc3ccccc3)CC2)nc2c1c(=O)[nH]c(=O)n2C,i
O=C(CCc1csc(NC(=O)c2cccs2)n1)NCCc1c[nH]c2ccccc12,i
CC(NC(=O)Cc1cc(=O)[nH]c(SCc2ccccc2)n1)c1ccccc1 (centres undefined),i
COc1cccc2cc(C(=O)NCc3nnc(C)o3)c(=O)oc12,i
O=C(Cn1ccc2ccccc21)N1CCN(C/C=C/c2ccccc2)CC1,i
CCOC(=O)Cn1c(=O)c2c(nc3n2CCCN3c2ccccc2)n(C)c1=O,i
COc1ccccc1NC(=O)c1sc(=S)n(-c2cc(C)ccc2C)c1N,i
CCCCC(=O)Nc1nc(-c2cc3ccccc3o2)cs1,i
COc1cccc2c(SCC(=O)Nc3ccc(C(N)=O)cc3)nccc12,i
CC(C)c1ccc(OCC(=O)Nc2cc(C3CC3)nn2-c2nc3c(c(=O)[nH]2)CCCC3)cc1,i
O=C(Nc1ccc(-n2cnnn2)cc1)C(c1ccccc1)n1cccc1 (centres undefined),i
Cn1c(-c2ccccn2)nn(CCNC(=O)c2cnn(-c3ccccc3)n2)c1=O,i
Cc1cccc(NC(=O)CSc2nc3ncccc3c(=O)n2Cc2ccccc2Cl)c1,i
O=C(CSCc1ccccc1)NCC1CCN(c2cnccn2)CC1,i
CS(=O)(=O)c1ccc2nc(NC(=O)c3csc(-n4cccc4)n3)sc2c1,i
CCc1ccccc1NC(=O)C(=O)NCc1ccco1,i
COc1cccc(COc2coc(C(=O)NCc3ccc4c(c3)OCO4)cc2=O)c1,i
CCN(CC)CCCN1C(=O)C(=O)C(=C(O)c2c(C)nc3ccccn23)C1c1cccnc1 (centres undefined),i
Cc1ccc(S(=O)(=O)c2c(C)nn(C(C)(C)C)c2OC(=O)c2ccccc2)cc1,i
Cc1noc(-c2cccn3c(=O)n(C(C)C(=O)NCc4cccs4)nc23)n1 (centres undefined),i
COc1ccc(C2(CNS(=O)(=O)c3ccc4oc(=O)n(C)c4c3)CCCC2)cc1,i
O=C(CCn1cnc2ccccc2c1=O)N1CCN(C(=O)C2CC2c2cccs2)CC1 (centres undefined),i
COc1ccc(NC(=O)Nc2ccc3c(c2)CCCN3C(=O)c2cccs2)cc1OC,i
O=C(c1ccc(Cl)s1)N1CCC(Oc2ncccc2Cl)CC1,i
Cc1ccc2nc3sc(Nc4ccc(Cl)cc4)nn3c(=O)c2c1,i
COc1ccc(CCC(=O)Nc2ccc(-n3nnc(C(=O)N(C)C)n3)cc2)cc1,i
COc1ccc(C(=O)Nc2cc3c4c(c2)CC(=O)N4CCC3)cc1OC,i
CCCNC(=O)C1CCC(Cn2c(=O)c3sccc3n(Cc3ccc(Cl)cc3)c2=O)CC1 (centres undefined),i
O=C1CCc2ccc(OCC(=O)N3CCN(C(=O)c4ccco4)CC3)cc21,i
CCc1c(C)nc(SCc2nc(-c3ccccc3Br)no2)[nH]c1=O,i
CCCn1c(C(=O)NCc2ccccc2)cc2c(=O)n(C)c(=O)n(C)c21,i
CC(C)=CCc1cc2c(cc1O)OC[C@H]1c3ccc(O)cc3O[C@@H]21,i
CCc1ccc(CNC(=O)c2nnn(-c3ccccc3F)c2-c2cccnc2)cc1,i
O=c1c(S(=O)(=O)N2CCCCCC2)cccn1Cc1ccc(Cl)cc1,i
COc1cccc(C(=O)Nc2ccc3c(c2)CCCN3S(=O)(=O)c2ccccc2)c1,i
Cc1ccc(OCCCC(=O)Nc2ccc(C(N)=O)cc2)c(C)c1,i
COc1ccccc1N1CCN(Cc2nnc(-c3ccc(C)cc3)o2)CC1,i
CCCCN1CC(c2nc3ccccc3n2CC(=O)N(CC)c2ccccc2)CC1=O (centres undefined),i
Cc1cc(C)n(-c2ccc(C(=O)Nc3cc(C(F)(F)F)ccc3Cl)nn2)n1,i
C=CC(C)(C)c1cc2cc3c(cc2oc1=O)OC(C(C)(C)OC(C)=O)C3 (centres undefined),i
COc1cccc(Oc2nccn3c(=O)n(CC(=O)Nc4cccc(Cl)c4C)nc23)c1,i
Cc1cnnn1-c1ccc(C(=O)Nc2ccccc2C#N)cc1,i
CCOc1ccc(NC(=O)Cn2c(=O)c(CNc3ccccc3)cc3ccc(OC)cc32)cc1,i
O=C(Nc1ccc2c(c1)CCCN2C(=O)C1CC1)Nc1cccs1,i

# Screening data from PubChem BioAssay.
